Cruzain noTriton: qHTS Assay for Promiscuous and Specific Inhibitors of Cruzain (without detergent) | hit rate 2.3% among 200,000 | Potency, µM, for the others: max response, negative = inhibition, usual class: inhibitors | purified cruzain, Z-FR-AMC fluorescence, no detergent | AID 1476, 2009;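 note: plate controls were enzyme without inhibitor for no effect and buffer without enzyme for full effect; nearly all actives have a fitted effect of over 40% in size; top concentration of the series not given in the record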
Target sequence (P25779 123-467 limits assumed): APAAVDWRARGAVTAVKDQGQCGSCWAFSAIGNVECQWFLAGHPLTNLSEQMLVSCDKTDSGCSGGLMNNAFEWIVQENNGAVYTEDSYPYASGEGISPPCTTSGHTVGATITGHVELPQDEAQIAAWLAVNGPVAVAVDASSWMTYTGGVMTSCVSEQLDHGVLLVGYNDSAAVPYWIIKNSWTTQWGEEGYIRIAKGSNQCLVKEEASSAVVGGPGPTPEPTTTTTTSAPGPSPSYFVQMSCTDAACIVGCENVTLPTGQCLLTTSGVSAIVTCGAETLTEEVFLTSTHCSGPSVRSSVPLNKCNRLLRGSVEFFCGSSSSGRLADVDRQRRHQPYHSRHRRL
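Purified cruzain at 1.5 nM, pre-incubated 15 min with compound at room temperature in 100 mM sodium acetate pH 5.5, 5 mM DTT, 0.00005% Triton X-100. Reaction started with 2 uM Z-FR-AMC; AMC fluorescence increase over 60 s gives rate.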
2A StopGo: High Throughput Screening for Foot and Mouth Disease Virus Antivirals; human cells with a luciferase reporter of 2A StopGo recoding; control for the full effect not named in the record; Potency, µM (highest dose often 57.9 µM), for inactives: top-dose signal change, negative = less light; hit rate 1.2% among 410,000; active = well fitted falling curve with a large enough effect; inconclusive = small, poorly fitted or top-dose-only effect; inactive = no such curve, though single readings can be large or run the other way; tested in HEK293T cells; note: % is set by controls: 0 for no effect and ±100 for the full control effect; nearly all actives have a fitted effect of over 45% in size; luciferase light after 4 h
NS1 function inh: qHTS Assay for Inhibitors of Influenza NS1 Protein Function | AID 2326, 2010 | Potency, µM (series often up to 46.1 µM), for inactives: at the top dose activity, positive = more growth | S. cerevisiae slowed by influenza A NS1, growth recovery by OD600 | hit rate 0.4% among 270,000; active means well fitted rising curve with a large enough effect; inconclusive means small, poorly fitted or top-dose-only effect; inactive means no such curve, though single readings can be large or run the other way; note: nearly all actives have a fitted effect of over 50% in size
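S. cerevisiae expressing influenza A NS1, grown in glucose, washed, then diluted 1:100 into pH 6.0 -URA galactose medium with 23 nl compound. Growth recovery read as OD600; NS1-free strain serves as control.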
Marburg entry inh: qHTS for inhibitors of binding or entry into cells for Marburg Virus; Marburg virus pseudotyped entry inhibition, cell reporter; control for the full effect not named in the record; about a third of the inactives were read at about 46 µM; Potency, µM (top dose mostly 37.8 µM), for inactives: top-dose activity change, negative = inhibition, usual class: inhibitors; hit rate 1.8% among 300,000; AID 540276, 2011; active = well fitted inhibition curve with a large enough effect; inconclusive = small, poorly fitted or top-dose-only effect, or effect the other way; inactive = flat fitted curve, though single readings scatter; tested in HEK293 cells; about a fifth of its hits are not listed in these tables; note: % is set by controls: 0 for no effect and ±100 for the full control effect; luciferase read-out
RE007 growth inh: qHTS Assay for Inhibitors of the HIV-1 protein Vpr. S. pombe RE007 Vpr strain, BacTiter-Glo ATP luminescence, 24 h; control for the full effect not named in the record. Potency, µM (series often up to 92.2 µM), for the others: top-dose activity change, negative = less growth. hit rate 0.21% among 360,000; active = well fitted falling curve with a large enough effect; inconclusive = small, poorly fitted or top-dose-only effect; inactive = no such curve, though single readings can be large or run the other way;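 note: % is set by controls: 0 for no effect and ±100 for the full control effect; nearly all actives have a fitted effect of over 50% in size; the assay follows cell death caused by Vpr and the record does not say whether a fall means rescue or toxicity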
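Fission yeast RE007 carrying one integrated HIV-1 vpr copy, seeded at OD 0.01 in PMG+AL medium with 23 nL pinned compound. Grown 24 h at 30 degrees; viability read by BacTiter-Glo luminescence after 5 min.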
Lassa entry inh: qHTS for Inhibitors of binding or entry into cells for Lassa Virus; Lassa virus pseudotype entry inhibition, cell reporter; control for the full effect not named in the record; Potency, µM (series often up to 37.9 µM), for inactives: at the highest dose activity change, negative = inhibition, actives largely listed as inhibitors; hit rate 1.2% among 300,000; active means well fitted inhibition curve with a large enough effect; inconclusive means small, poorly fitted or top-dose-only effect, or effect the other way; inactive means flat fitted curve, though single readings scatter; tested in HEK293 cells; note: % is set by controls: 0 for no effect and ±100 for the full control effect; nearly all actives have a fitted effect of over 50% in size; luciferase read-out
SARS PLpro yeast: qHTS of Yeast-based Assay for SARS-CoV PLP. S. cerevisiae expressing SARS-CoV PLpro, growth rescue; control for the full effect not named in the record. Potency, µM (top dose mostly 32.9 µM), for the others: top-dose activity, positive = growth rescue. hit rate 0.19% among 330,000. AID 485353, 2010; active means well fitted rising curve with a large enough effect; inconclusive means small, poorly fitted or top-dose-only effect; inactive means no such curve, though single readings can be large or run the other way; note: 0% is about no effect; nearly all actives have a fitted effect of over 55% in size; growth read by luminescence after 48 h
Cruzain inh Det: qHTS Assay for Promiscuous and Specific Inhibitors of Cruzain (with detergent); Cruzipain (Trypanosoma cruzi), P25779; purified cruzain, Z-FR-AMC fluorescence, 0.01% Triton; Potency, µM, inactives show max response, negative = inhibition, most hits filed as inhibitors; hit rate 0.43% among 200,000;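 note: plate controls were neutral wells for no effect and buffer without enzyme for full effect; nearly all actives have a fitted effect of over 40% in size; top concentration of the series not given in the record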
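Read-out: AMC fluorescence (360 nm excitation, 450 nm emission), four reads over 2 min, first-to-third difference used. Conditions: cruzain 1.5 nM, Z-FR-AMC 2 uM, pH 5.5 acetate, 5 mM DTT, 0.01% Triton X-100.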
Numbers without * were called inactive; u = inconclusive; x = no result given; [ ] = dose if it differs, or a comment. Unless noted, calls come from the whole dose curve; as a rule, active = well fitted curve in the direction sought with a large enough effect; inconclusive = small, poorly fitted or top-dose-only effect, or another doubt; inactive = no such curve, though single readings can be large; an effect the other way counts as inactive or inconclusive. Potency is the fitted concentration of half-maximal effect.

SMILES | Cruzain noTriton | 2A StopGo | NS1 function inh | Marburg entry inh | RE007 growth inh | Lassa entry inh | SARS PLpro yeast | Cruzain inh Det
O=C(CSc1nc2ccccc2c(=O)n1-c1ccccc1)c1c[nH]c2ccccc12 | u | -16.5% | 5.8% | u | -3.0% | -26.6% | 13.9% | -2.9%
CCNC(=O)c1ccc(C2SCC(=O)N2Cc2ccco2)cc1 (stereo not drawn) | 1.0% | -21.5% | 6.9% | -1.2% | 7.8% | 5.5% | -1.5% | 1.4%
Cc1[nH]c2ccc(C(=O)O)cc2c1C | -10.5% | x | -64.6% | u | 1.3% | -0.2% | -4.2% | 1.2%
COc1ccc(Cc2nn[nH]n2)cc1 | -9.4% | -4.4% | 6.2% | 14.0% | -1.0% | 19.7% | 3.0% | 1.7%
COc1ccccc1OCC(=O)N1CCCC(Nc2ccc(F)c(F)c2)C1 (stereo not drawn) | x | -15.7% | 8.7% | 1.5% | -6.1% | -1.9% | 6.9% | x
Cc1cc(C)c(N2C(=O)C3C4CC(=O)C(c5ccccc54)C3C2=O)c(C)c1 (stereo not drawn) | x | -12.7% | -8.3% | x | 4.3% | x | 5.1% | x
C=CCNC(=S)NNC(=O)c1cccnc1 | x | -18.2% | 1.9% | 19.1%[14.2 µM] | -0.8% | 4.6% | -0.4% | x
Cc1cc(C)c2c(=O)c3c(oc2c1)C(=O)N(Cc1ccc(F)cc1)C3c1cccc(O)c1 (stereo not drawn) | -19.8% | -10.9% | x | u | x | -36.8%[46.1 µM] | x | -6.8%
O=C(N/N=C/c1cccc([N+](=O)[O-])c1)C1COc2ccccc2O1 (stereo not drawn) | x | 13.8% | x | -11.7%[46.1 µM] | 13.4% | -0.6% | -6.0% | x
COC(=O)c1ccc(NC(=O)C2C3CCC(C3)C2C(=O)O)cc1 (stereo not drawn) | 1.3% | -16.4% | -8.8% | 4.2%[46.1 µM] | 2.4% | 3.3% | x | 2.9%
O=C(CSc1nc2ccccc2c2c1CCCC2)N1CCOCC1 | x | -14.4% | -43.1% | u | 1.2% | u | -3.5% | x
O=C(Nc1cccc2nsnc12)c1ccc(-c2cccc(Cl)c2)o1 | u | 4.3% | 20.5% | 3.1% | u | 5.7% | -1.0% | 0.8%
Cc1cccc(N=Nc2c(N)n[nH]c2-c2ccc(Cl)cc2)c1 | 25.1µM* | -7.8% | 14.8% | u | -10.5% | -7.5% | -17.4% | -5.9%
COc1ccc(NC(=O)CCC2CCCC2)cc1OC | 2.1% | 27.3% | -49.2% | -0.5% | 17.8% | -4.1% | -4.9% | 1.4%
Cc1nn(-c2ccccc2)c2sc(-c3nnc(SCC(=O)O)o3)cc12 | u | x | 1.9% | -10.6% | 0.7% | -1.4% | -7.6% | -16.6%
C/C(=C\C(=O)c1ccccc1)Nc1ccc(O)cc1 | -4.3% | 21.3% | -2.3% | u | 31.8% | u | -7.3% | -7.6%
O=C(NCc1ccco1)c1ccccc1NS(=O)(=O)c1ccc2c(c1)OCCO2 | -11.9% | -8.9% | -40.7% | 3.0% | 11.1% | 0.9% | x | -16.9%
CCCCNC(=O)COC(=O)CNC(=O)c1cc(Cl)cc([N+](=O)[O-])c1 | x | -3.1% | x | u | -0.8% | -9.4% | -0.2% | x
Cc1ccc(CCNC(=O)c2c(C)oc3ncn(CC(C)C)c(=O)c23)cc1 | -12.5% | -5.7% | x | x | x | -11.8%[46.1 µM] | x | -2.6%
Cc1ccccc1N1CC(O)(c2cccs2)[N+]2=C1CCCC2 (stereo not drawn) | x | -4.2% | x | -13.8%[46.1 µM] | 3.4% | -8.0% | 0.5% | x
Cc1ccc(OCCC(=O)OC(C)C(=O)Nc2c(C)n(C)n(-c3ccccc3)c2=O)cc1 (stereo not drawn) | x | -27.0% | x | u | -14.3% | -12.8% | -2.2% | x
Cc1ccc(NCc2ccc(Cl)nc2)c(NCc2ccc(Cl)nc2)c1 | x | -21.1% | x | -14.6%[46.1 µM] | -8.9% | -20.2%[46.1 µM] | -4.7% | x
O=C(NCc1nnc(SCC(=O)N2CCc3ccccc32)o1)c1cccs1 | x | -9.4% | x | u | 1.1% | -13.8% | 1.0% | x
N#Cc1ccc(Oc2cccc(C(=O)O)c2)cc1C#N | -9.8% | -5.9% | 16.0% | 1.4% | 13.6% | -2.4% | 1.8% | 1.8%
Cc1ccc(OCc2cc(C(=O)N3CCN(CC(=O)NC(C)C)CC3)no2)cn1 | x | 2.4% | 3.3% | x | -2.9% | x | 11.1% | x
O=C(OCc1nc2ccccc2[n+]([O-])c1C(=O)c1ccccc1)c1cccnc1 | x | -5.7% | -2.9% | 19.4% | 0.6% | u | -1.0% | x
CCS(=O)(=O)Nc1ccc2c(c1)OCO2 | x | 6.8% | 3.2% | u | -3.8% | 15.0% | -2.4% | x
CN(C)CCNc1nc2c(c(=O)[nH]c(=O)n2C)n1CCOc1ccccc1 | x | -0.5% | 2.0% | x | 8.0% | x | 0.3% | x
N/C(=N\OC(=O)c1ccccc1)c1ccccn1 | x | 10µM* | -1.3% | u | u | u | -5.9% | x
O=C1Nc2cc(C(=O)NCCCN3CCCC3)ccc2S/C1=C\c1ccccc1 | x | -23.8% | 11.4% | x | -5.5% | x | -6.6% | x

Sorted by length of the SMILES (lowest first): some entries from above
SMILES | Cruzain noTriton | 2A StopGo | NS1 function inh | Marburg entry inh | RE007 growth inh | Lassa entry inh | SARS PLpro yeast | Cruzain inh Det
COC(=O)c1ccc(NC(=O)C2C3CCC(C3)C2C(=O)O)cc1 (stereo not drawn) | 1.3% | -16.4% | -8.8% | 4.2%[46.1 µM] | 2.4% | 3.3% | x | 2.9%
O=C(NCc1nnc(SCC(=O)N2CCc3ccccc32)o1)c1cccs1 | x | -9.4% | x | u | 1.1% | -13.8% | 1.0% | x
Cc1ccc(OCc2cc(C(=O)N3CCN(CC(=O)NC(C)C)CC3)no2)cn1 | x | 2.4% | 3.3% | x | -2.9% | x | 11.1% | x
CCCCNC(=O)COC(=O)CNC(=O)c1cc(Cl)cc([N+](=O)[O-])c1 | x | -3.1% | x | u | -0.8% | -9.4% | -0.2% | x
O=C(OCc1nc2ccccc2[n+]([O-])c1C(=O)c1ccccc1)c1cccnc1 | x | -5.7% | -2.9% | 19.4% | 0.6% | u | -1.0% | x

Continued:
SMILES | Cruzain noTriton | 2A StopGo | NS1 function inh | Marburg entry inh | RE007 growth inh | Lassa entry inh | SARS PLpro yeast | Cruzain inh Det
Cc1cccc(C(=O)N/N=C/c2cc(Br)c(Br)o2)c1 | 6.0% | 7.2% | -4.8% | u | -19.4% | u | -30.4% | -6.7%
CSc1ccc(-c2nc(CSCC(=O)NC3CC3)c(C)o2)cc1 | x | -9.0% | 6.4% | x | -1.5% | x | 10.6% | x
COc1ccc(F)cc1CN1CCN(C(=O)CCC(=O)Nc2nnc(C(C)C)s2)CC1 | -3.0% | 0.0% | -4.9% | 1.6% | -14.2% | 0.5% | -5.5% | 1.7%
Cc1ccc(S(=O)(=O)c2[nH]c(-c3ccccc3)nc2SCCC(=O)O)cc1 | -12.9% | -6.1% | x | 1.3%[46.1 µM] | x | -3.6%[46.1 µM] | x | -4.4%
Cc1cc(=O)[nH]c2c(C)cc(S(=O)(=O)N3CCCCC3)cc12 | x | 2.0% | -5.9% | x | -1.1% | x | -4.8% | x
CCCCCOc1ccc(C(=O)CCC(=O)NC(C)c2ccc(S(N)(=O)=O)cc2)cc1 (stereo not drawn) | x | -14.6% | x | u | -8.2% | -7.8%[46.1 µM] | -1.6% | x
COc1ccc(-n2ccc(=O)c(C(=O)O)n2)cc1 | x | 0.0% | 4.6% | 4.6%[46.1 µM] | 4.7% | 29.9%[46.1 µM] | 0.1% | x
O=C(Nc1ccccc1Oc1cccnc1)C1CCCN(C/C=C/c2ccccc2)C1 (stereo not drawn) | x | -17.6% | -7.4% | u | 3.0% | -6.7% | 0.2% | x
CCN(CC)CCCNC(=O)C1c2ccccc2C(=O)N(C)C1c1ccc(OC)cc1 (stereo not drawn) | -3.0% | -8.3% | -0.8% | u | 28.1% | -26.1% | 4.6% | 3.0%
Cc1cc(C)nc(NS(=O)(=O)c2ccc(NC(=O)c3cccs3)cc2)n1 | -12.2% | 26.4% | -2.0% | 2.6%[46.1 µM] | 14.3% | 5.6% | -0.8% | -0.7%
COC(=O)CNC(=O)c1cc(-c2ccncc2)nc2ccc(C)cc12 | x | -23.7% | 1.9% | x | -0.8% | x | -1.1% | x
Cc1cccc(CSc2ncnc3nc[nH]c23)c1 | 13.1% | -7.0% | u | x | -4.1% | x | -15.6% | -7.5%
Cc1cc(C)n(-c2cc(C(=O)O)cc(C(=O)O)c2)n1 | x | 5.7% | 3.0% | 7.0% | -15.1% | 9.1% | 0.0% | x
O=C(CCN1C(=O)[C@@H]2Cc3ccccc3CN2C1=O)NCc1ccc(Cl)cc1 | x | 33.7%[activator] | 11.9% | u | 5.6% | -20.9%[46.1 µM] | 5.4% | x
Cc1ccc(N(C)C(=O)Oc2cccc3cccnc23)cc1 | 6.2% | 5.2% | -8.1% | 7.2% | 13.6% | -10.3% | -5.6% | -3.9%
CCCOc1ccc(N2C(=O)CC(NCCCN3CCC(C(N)=O)CC3)C2=O)cc1 (stereo not drawn) | x | -18.4% | -17.5% | 7.0%[46.1 µM] | -16.8% | -3.1% | x | x
CC1Cc2ccccc2N1C(=O)CSc1ncc(-c2ccc(F)cc2)n1C (stereo not drawn) | -10.7% | 12.5% | 19.6% | u | -13.6% | u | u | -7.1%
CC1(C(=O)O)CCC(C(=O)NC2CCCCCC2)C1(C)C (stereo not drawn) | -0.1% | 7.7% | 0.5% | 20.9% | -4.1% | -6.8% | 4.5% | 3.2%
CCC(C(=O)NC1CCCC1)N(C(=O)Cn1nnc(-c2cccs2)n1)c1cnc2ccccc2c1 (stereo not drawn) | 6.8% | -15.6% | -26.4% | u | -4.3% | -5.4% | -4.1% | 0.3%

This is a random part of the collection. Share with any hit: about 4.6%.
